# Screening results as filed in PubChem.
# NPYLR7 ag: activates Aedes aegypti NPYLR7 receptor; AID 1259423; 270,000 compounds, 0.15% hits; activation, % at 10 µM; HEK293T NPYLR7/Galpha15, GCaMP6s calcium fluorescence; in the data active means activation above about 40%;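 further: 0% = vehicle and 100% = reference agonist at the receptor; some compounds past the cut are filed as inactive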
# NPYLR7 ag max-min: also measured in NPYLR7 ag; calls as there; activation, %; measured here: Max-Min RFU normalised activation; some inactives read as strong as hits;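 span of the calcium signal over five minutes; 0% = vehicle and 100% = native peptide agonist; compound fluorescence can raise it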
# * marks the source's active call; other numbers are inactive results. Some of the compounds tested; rates above refer to the full screens.
# Start of the listing, in advance (20 entries):
mol	NPYLR7 ag max-min	NPYLR7 ag
COCCN(Cc1c(-c2ccccc2)noc1N1CCCCC1)C(=O)Nc1cccc(Cl)c1	-2	-3
CC(Sc1n[nH]c(N)n1)c1cccc2ccccc12 (stereo not given)	3	4
C[C@H](CCC(=O)NCC(=O)N1CCN(c2ccccc2Cl)CC1)[C@H]1CC[C@H]2[C@@H]3[C@H](O)C[C@@H]4C[C@H](O)CC[C@]4(C)[C@H]3C[C@H](O)[C@]12C	-18	-8
COC(=O)c1cnc2cc(C(F)(F)F)ccc2c1OC	-5	-2
CC(=O)Oc1c(-c2ccc(NC(=O)c3ccco3)cc2)c(-c2ccc(F)cc2)nn1-c1ccccc1C	12	7
O=Cc1cccn1-c1ccc2ccccc2c1	-22	-14
CC1COCCN1C(=O)NC(c1cc(F)ccc1F)C1CC1 (stereo not given)	-1	2
COc1ccc(OC)c(C2NC(=O)N(C)C3=C2C(=O)N(CC2CCCO2)C3)c1 (stereo not given)	25	30
CCC(C)Oc1ccc(C#N)cc1 (stereo not given)	14	24
Cc1ccc(CN2CCN(c3ccncc3F)CC2)cc1	10	-2
O=C(NCc1ccc(Cl)cc1)c1cc(N2CCOCC2)nc2ccccc12	-13	-14
COc1cccc(-c2ccc3nnc(SCC(=O)N4CCCC4)n3n2)c1	-12	-14
CCOC(=O)c1c(C)[nH]c(C(=O)N(C)Cc2ccco2)c1C	-4	1
CN1CC(C)(C)CN(C(=O)CCc2ccccc2)CC1=O	29	27
CNC(=O)NC(=O)C(C)Sc1nnc(SCC(C)C)s1 (stereo not given)	2	-2
COc1c(Cl)cccc1NC(=O)c1sccc1SC(F)F	4	10
Cc1nc(CCC(=O)N2CCC(Cc3cccc(C(=O)O)c3)C2)n[nH]1 (stereo not given)	5	6
C[C@@H]1[C@H](O)[C@@H]2OC(=O)C3=C2[C@H](CCC3)[C@@]12C[C@@H](c1ccoc1)OC2=O	2	4
COC(Cn1ccnc1-c1cccc2nonc12)c1cccs1 (stereo not given)	-3	0
COC(=O)c1ccc(CSc2ccnc3c2c(=O)n(C)c(=O)n3C)o1	11	6

# The list itself, repeating the preview:
mol	NPYLR7 ag max-min	NPYLR7 ag
COCCN(Cc1c(-c2ccccc2)noc1N1CCCCC1)C(=O)Nc1cccc(Cl)c1	-2	-3
CC(Sc1n[nH]c(N)n1)c1cccc2ccccc12 (stereo not given)	3	4
C[C@H](CCC(=O)NCC(=O)N1CCN(c2ccccc2Cl)CC1)[C@H]1CC[C@H]2[C@@H]3[C@H](O)C[C@@H]4C[C@H](O)CC[C@]4(C)[C@H]3C[C@H](O)[C@]12C	-18	-8
COC(=O)c1cnc2cc(C(F)(F)F)ccc2c1OC	-5	-2
CC(=O)Oc1c(-c2ccc(NC(=O)c3ccco3)cc2)c(-c2ccc(F)cc2)nn1-c1ccccc1C	12	7
O=Cc1cccn1-c1ccc2ccccc2c1	-22	-14
CC1COCCN1C(=O)NC(c1cc(F)ccc1F)C1CC1 (stereo not given)	-1	2
COc1ccc(OC)c(C2NC(=O)N(C)C3=C2C(=O)N(CC2CCCO2)C3)c1 (stereo not given)	25	30
CCC(C)Oc1ccc(C#N)cc1 (stereo not given)	14	24
Cc1ccc(CN2CCN(c3ccncc3F)CC2)cc1	10	-2
O=C(NCc1ccc(Cl)cc1)c1cc(N2CCOCC2)nc2ccccc12	-13	-14
COc1cccc(-c2ccc3nnc(SCC(=O)N4CCCC4)n3n2)c1	-12	-14

# Going on with the list.
mol	NPYLR7 ag max-min	NPYLR7 ag
CCOC(=O)c1c(C)[nH]c(C(=O)N(C)Cc2ccco2)c1C	-4	1
CN1CC(C)(C)CN(C(=O)CCc2ccccc2)CC1=O	29	27
CNC(=O)NC(=O)C(C)Sc1nnc(SCC(C)C)s1 (stereo not given)	2	-2
COc1c(Cl)cccc1NC(=O)c1sccc1SC(F)F	4	10
Cc1nc(CCC(=O)N2CCC(Cc3cccc(C(=O)O)c3)C2)n[nH]1 (stereo not given)	5	6
C[C@@H]1[C@H](O)[C@@H]2OC(=O)C3=C2[C@H](CCC3)[C@@]12C[C@@H](c1ccoc1)OC2=O	2	4
COC(Cn1ccnc1-c1cccc2nonc12)c1cccs1 (stereo not given)	-3	0
COC(=O)c1ccc(CSc2ccnc3c2c(=O)n(C)c(=O)n3C)o1	11	6
COc1ccc(-c2cnc3ncnn3c2N2CCN(C(=O)CCCOc3ccccc3)CC2)cc1	16	28
CCCCOCC(O)CN(CCOC)Cc1c(CC)nn(-c2ccccc2)c1Oc1cccc(OC)c1 (stereo not given)	5	4
O=C(NCC1CCCO1)C1CCN(C2CCN(C3CCSCC3)CC2)CC1 (stereo not given)	0	8
COc1ccc(CNC(=O)N2CCN(c3nc(C)cs3)CC2)cc1C	3	5

# The list continues:
mol	NPYLR7 ag max-min	NPYLR7 ag
CC(CNC1CCNCC1)N(C)c1ccccc1 (stereo not given)	-3	-1
COc1ccccc1NC(=O)C(C)(C)Oc1ccc(Cl)cc1	3	2
O=C(C1CC2(CCNCC2)CN1)N1CCCN(Cc2ccccn2)CC1 (stereo not given)	10	28
COCCN(CC(=O)Nc1cc(C(C)(C)C)nn1-c1ccc(C)cc1)C(=O)c1ccc(-c2ccccc2)cc1	8	-3
CN=c1scc(-c2cc3ccccc3o2)n1N=Cc1cccc(O)c1O	0	0
CCn1c(=O)n(CCC(=O)Nc2cccc(C)c2)c2ccccc21	0	1
Cc1nsc(NC(=O)NCc2cccc(Cl)c2Cl)n1	-3	0
Cc1cc(C)n(C)c(=O)c1C(=O)N(C)Cc1cc2cc(F)ccc2[nH]1	-18	-14
O=C(Nc1cccc(-n2cccn2)c1)C1CCCN(C2CCOCC2)C1 (stereo not given)	4	5
COc1cccc2c(SCC(=O)N(C)c3ccccc3)nccc12	-3	1
Cc1ccc2nc(NC(=O)/C=C/c3cccc([N+](=O)[O-])c3)sc2c1	-2	1
CCOc1cc(/C=C(/C#N)c2ccc(C(=O)O)cc2)ccc1OCC(N)=O	0	12

# New compounds follow:
mol	NPYLR7 ag max-min	NPYLR7 ag
Cc1cccc(OCC(=O)Nc2nccs2)c1	-11	-4
COc1ccc(-c2nnco2)cc1	-7	-6
Cc1ccccc1C1c2[nH]c3ccccc3c2CCN1C(=O)c1nn(C)c(=O)c2ccccc12 (stereo not given)	-1	2
OCC(S)CS (stereo not given)	-4	-1
O=C1CCCN1c1cccc(NC2c3ccccc3-c3ccccc32)c1	2	1
O=C(CCc1nc2ccccc2[nH]1)N(Cc1ccsc1)CC1CCCO1 (stereo not given)	-5	-1
Cc1nc(N(C)C)nc(N(C)Cc2cnn(C)c2C)c1C	-6	6
O=C(c1cn(-c2ccccc2)nn1)N1CCC(c2ccccc2Cl)C1 (stereo not given)	-8	-1
COc1cc(N)cc2sc(NC(C)=O)nc12	-7	-1
Cn1c(-c2ccccc2)cc2c(Nc3ccc(S(C)(=O)=O)cc3)nccc21	-10	-8
CC1CC(NC(=O)N(C)C)N(C)C(=O)N1 (stereo not given)	-6	-2
O=C(Nc1ccccc1)N1CCC(C(=O)N2CC(C(=O)N3CCOCC3)Oc3ccccc32)CC1 (stereo not given)	2	4

# (list continues)
mol	NPYLR7 ag max-min	NPYLR7 ag
CC(NC(=O)CN1CCCC(O)C1)c1cccc2ccccc12 (stereo not given)	-2	-1
CN(c1ccccc1)S(=O)(=O)c1cccc(NC(=O)C2CC2)c1	-1	-1
CCOc1ncccc1CN1CCCC(C(=O)NCc2ccc(OC)cc2OC)C1 (stereo not given)	-16	-13
COc1ccccc1N1C(=O)c2c(n[nH]c2C)NC1/C(C)=C/c1ccccc1 (stereo not given)	3	5
CC1CN(c2sc(S(C)(=O)=O)nc2S(=O)(=O)c2ccc(Cl)cc2)CC(C)O1 (stereo not given)	1	2
O=C(Nc1nc2c(s1)CCCC2C(=O)N1CCN(c2ccccc2)CC1)c1ccccc1 (stereo not given)	9	17
COc1cccc(Nc2nc(N3CCN(C)CC3)nc3c2cnn3-c2ccccc2)c1	-2	0
O=C(NCc1ccncc1)c1coc(CN(Cc2ccccc2)Cc2cccc(Cl)c2Cl)n1	9	2
O=C(CC1Cn2ncc(-c3ccccc3)c2NC1=O)Nc1ccccc1 (stereo not given)	5	6
COc1cccc(C2=NN(C(=O)CN3CCN(c4ccccc4F)CC3)C(c3ccccc3F)C2)c1 (stereo not given)	2	-3
CCCCC1C=CCN1C(=O)c1cc(C(C)C)[nH]n1 (stereo not given)	0	2
COc1ccccc1/C=C1\SC(=S)N(CCC(=O)NNC(=O)c2ccccc2OC)C1=O	-15	-11

# Next part.
mol	NPYLR7 ag max-min	NPYLR7 ag
Cn1cc(CNc2ccc(C(=O)Nc3cccc(Cl)c3)cn2)cn1	-20	-21
COc1ncccc1C(=O)N1CCC(CCC(=O)N2CCN(c3ccccc3)CC2)CC1	-4	0
COc1cccc(N2C(=O)CSC2c2cccc(NC(=O)c3ccccc3Br)c2)c1 (stereo not given)	9	4
CC(CC(F)(F)F)C(=O)N1CCC(n2c(-c3ccccc3)nc3ccc(F)cc32)CC1 (stereo not given)	18	27
COc1cc2[nH]c(=O)n(CCCCC(=O)NCCCc3ccco3)c(=O)c2cc1OC	-5	-4
O=C(NCc1cccnc1)c1cccc(S(=O)(=O)N2CCCCC2)c1	-28	-18
COc1ccc(C(=O)Nc2ccc(O)c(-c3nc4ccccc4s3)c2)cc1[N+](=O)[O-]	-15	-11
O=C(Cc1ccc2c(c1)CCC2)N1CCN(c2ccc(O)cc2)CC1	0	2
CC(C)(C)n1ccc(C(=O)N2CC[C@H](CO)[C@H](O)C2)c1	-5	-1
COCCCN1C(=O)N(Cc2ccc3ccccc3c2)C(=O)C12CCN(C1CCSC1)CC2 (stereo not given)	9	18
CCc1ccc(C(C2Sc3nc(CC)nn3C2=O)N2CCC3(CC2)OCCO3)cc1 (stereo not given)	-8	-4
CCc1cn[nH]c1C1CCCN(C(=O)c2cccnc2NC)C1 (stereo not given)	1	3

# Carrying on.
mol	NPYLR7 ag max-min	NPYLR7 ag
COC(=O)CCCC(=O)NC/C=C(\C)CCC=C(C)C	-11	-10
C=CCN(Cc1cccn1Cc1ccccc1Cl)C(=O)c1ccc(CCCCC)cc1	15	6
Cn1cc(C(CC(=O)O)c2ccccc2C(F)(F)F)c2ccccc21 (stereo not given)	19	10
CCN(Cc1nc(COC)no1)C(=O)c1ccc2cc[nH]c2c1	1	1
O=C(c1ccc(C2CCCO2)s1)N1CCc2nc[nH]c2C1 (stereo not given)	-14	-8
S=c1[nH]nc(-c2snnc2-c2ccccc2)n1-c1c(Cl)cccc1Cl	-14	-7
COc1cccc2c1OCCCN(C(=O)c1ccc(C#CC(C)(C)O)o1)C2	10	22
c1cc2nonc2cc1CNCc1ccc2[nH]c3c(c2c1)CCCC3	0	6
CCC(C)C(NC(=O)Nc1ccc(C#N)cc1)C(=O)Nc1nnc(-c2cccc(Br)c2)s1 (stereo not given)	24	11
CS(=O)(=O)Nc1ccccc1C1=NN(C(=O)CCC(=O)O)C(c2ccccc2F)C1 (stereo not given)	0	3
COc1ccc(Cc2nc(CSc3nccs3)cs2)cc1	15	14
Cc1noc(-c2cccc(F)c2)c1C(=O)NCc1ccc(C(F)(F)F)cc1	-6	2

# The listing continues.
mol	NPYLR7 ag max-min	NPYLR7 ag
CCCCCCC(=O)NN=Cc1ccc([N+](=O)[O-])cc1	-1	4
O=C(CNC(=O)c1ccccc1)Nc1nc2cc3c(cc2s1)OCCO3	2	4
OCC1CCCN(CCNC2CCC3(CCNCC3)CC2)C1 (stereo not given)	-11	-7
O=C(N[C@H]1CN[C@H](C(=O)N2CC=C(c3ccccc3)CC2)C1)c1ccco1	-9	-8
COCCN1CCCC[C@]2(C[C@H](C(=O)O)[C@H](c3ccco3)N2C(=O)Nc2cccc(C#N)c2)C1=O	9	1
O=c1[nH]c(CN2CCCCCC2)nc2scc(-c3cccs3)c12	3	7
O=C(Nc1ccccc1)c1ccc(Br)c(S(=O)(=O)NCc2ccccc2)c1	-25	-12
COc1cc(Br)c(Nc2nc(-c3c(C)nc4ncccn34)cs2)c(Br)c1	-7	-1
COc1cccc(C2=NC(=Cc3cc(Br)ccc3OC)C(=O)O2)c1	6	-5
COc1ccc(C2=N/C(=C\C=C\c3ccccc3)C(=O)O2)cc1[N+](=O)[O-]	-1	-1
COc1ccc(C(=O)CSc2nnc(CCc3c(C)[nH]c(=O)n(C)c3=O)o2)cc1OC	-13	-7
Cc1ccc(CN(Cc2ccc(F)cc2)C(=O)CNCCN2CCOCC2)s1	58*	56*

# Further records
mol	NPYLR7 ag max-min	NPYLR7 ag
CCCOc1cccc(CNC(=O)c2ccnc(-n3ccnc3)c2)c1	-4	-3
COc1ccc(C)cc1NC1CCCN(S(=O)(=O)c2ccc(F)cc2)C1 (stereo not given)	16	4
CC(OC(=O)C=Cc1cccc2cccnc12)C(=O)N1CCN(S(=O)(=O)c2ccccc2)CC1 (stereo not given)	-6	-1
COc1ccccc1-c1nc2cc(C)ccn2c1NC(=O)CCC1CCCC1	-7	-11
COc1ccc(C)cc1N1CCN(C(=O)c2ccc(C(F)(F)F)cc2)C(C)C1=O (stereo not given)	-8	-10
CC(=O)N(C)N1c2ccccc2CCc2ccccc21	0	0
N#CC(=C(O)CSc1nnc2ccccn12)c1nc2ccccc2s1	26	27
CCOC(=O)CNC(=O)N1CCC2(CCCN(CC3CC3)C2=O)C1 (stereo not given)	8	20
Cc1nc(N)nc(N(C)C)n1	17	10
CCOC(=O)Cc1ccc(Nc2nc(NC)nc3ccsc23)cc1	1	4
CC(C)c1cc(NC(=O)CN(C)c2ccccc2)on1	4	7
Cc1cc(C)n(Cc2ccccc2C#N)n1	-3	-1
CC(=O)N1CCN(c2ccc(Nc3ccccn3)nn2)CC1	3	5
COc1ccc(OCC2CN(C(=O)c3ccc(C(F)(F)F)[nH]c3=O)CCO2)cc1 (stereo not given)	1	4
O=C(c1cc(F)ccc1C(F)(F)F)N1CCC2(CC1)C(=O)NCN2c1ccccc1	-12	-8
